Assay outcomes (PubChem)
Beta2AR agonist: agonists of human beta-2 adrenergic receptor inducing internalization; AID 504454; Am2.2-beta2AR cells, FAP receptor internalization, flow cytometry; reference of the scale not given here; response, % (concentration not given with the values); actives 0.43% (n = 340,000);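 active = response above a set limit, near 3 SD of response in nonfluorescent compounds, cut at about 42% in these data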;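 note: stock transfer was 100 nL into about 11 µL; a reference agonist was the positive control; negative values mostly stem from fluorescent compounds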
Target sequence (P07550 whole entry, looked up): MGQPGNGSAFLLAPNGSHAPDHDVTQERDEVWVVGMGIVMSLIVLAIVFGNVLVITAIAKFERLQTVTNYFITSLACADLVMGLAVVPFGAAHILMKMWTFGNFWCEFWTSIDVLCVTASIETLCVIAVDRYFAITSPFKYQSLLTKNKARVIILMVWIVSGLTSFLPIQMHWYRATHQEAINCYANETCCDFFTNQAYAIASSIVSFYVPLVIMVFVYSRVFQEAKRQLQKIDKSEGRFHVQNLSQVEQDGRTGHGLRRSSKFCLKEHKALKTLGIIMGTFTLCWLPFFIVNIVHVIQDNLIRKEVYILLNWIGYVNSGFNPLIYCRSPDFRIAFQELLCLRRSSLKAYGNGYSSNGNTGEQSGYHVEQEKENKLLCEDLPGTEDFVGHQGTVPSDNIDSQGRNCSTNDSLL
T cruzi repl: blocks replication of Trypanosoma cruzi. actives 1.4% (n = 300,000). T. cruzi beta-gal in NIH3T3, luminescence, 90 h. inhibition, % (concentration not given with the values);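 active = mean inhibition across valid replicates above about 55%, limit read from the data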;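 note: signal also drops with host cell toxicity which is not excluded here; 0% = plate median of DMSO wells and 100% = zero luminescence signal; higher percent means less beta-gal luminescence so fewer parasites; stock transfer was 50 nL into about 50 µL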
Ecoli rRNA inh: selective bacterial rRNA inhibition in E. coli; E. coli WT GFP vs humanized-ribosome RFP mutants, fluorescence, 24 h; hits give low values; DMSO median 0, no signal -100; GFP signal change (wild-type ribosome), % (concentration not given with the values); actives 1.6% (n = 350,000); AID 720706;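 active = significant combined selectivity score with lowered wild-type GFP, culture density cut under 30%, mutant RFP and density less affected; inactive = any of these conditions unmet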; note: one replicate is shown; some compounds called inactive have numbers as strong as hits
Calb FLC: affects C. albicans growth with fluconazole | C. albicans CaCi-2 (fluconazole-resistant clinical isolate) + fluconazole, Alamar Blue growth, 48 h | growth inhibition, % (no concentration beside the values) | actives 0.57% (n = 300,000) | AID 1979;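 active = most replicates above 75%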;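 note: all wells also contain fluconazole at 8 µg/ml as a sub-toxic cotreatment; 0% = median of DMSO wells and 100% = median of geldanamycin control wells; wells of about 8 µL received 7.5 nL stock; the first replicate is given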
ALR inh: blocks human ALR sulfhydryl oxidase activity | P55789 | purified ALR, DTT oxidation, H2O2 HRP-luminol luminescence | inhibition, % (test concentration not listed) | actives 3.8% (n = 290,000);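 active = mean and each replicate at 75% or more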;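 note: stock transfer was 7.5 nL into about 7.5 µL; 0% = neutral wells and 100% = wells with inactivated enzyme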
Target sequence (P55789 whole entry, looked up): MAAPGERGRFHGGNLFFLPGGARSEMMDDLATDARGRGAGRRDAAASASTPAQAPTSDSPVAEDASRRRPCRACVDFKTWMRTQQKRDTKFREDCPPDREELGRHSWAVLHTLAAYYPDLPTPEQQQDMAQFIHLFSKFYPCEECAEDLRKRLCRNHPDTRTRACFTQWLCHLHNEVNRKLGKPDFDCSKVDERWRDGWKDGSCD
LANA-H2A inh: blocks KSHV LANA binding to histone H2A/H2B; inhibition, % (no concentration beside the values); AID 2629; actives 0.6% (n = 320,000); cell-free LANA-H2A/H2B peptide, fluorescence polarization; Q9QR71; in the data active = inhibition mostly above about 10%, no sharp cut-off; inactive = mostly below about 6.7%;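 note: stock transfer was 7.5 nL into about 10 µL; 0% = median of vehicle wells and 100% = median of positive control wells; one replicate is shown; the record names a cut of 25% in any replicate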
Bfl-1 A1 inh: inhibitors of the anti-apoptotic protein A1, read as caspase activation. MEF A1-2A-BIM cells, Caspase-Glo 3/7 luminescence, 3 h; percent of clofoctol response, vehicle zero. caspase activation, % (concentration not given with the values). actives 0.066% (n = 330,000). AID 2462;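 active = over half of replicate activation scores above 10%, or exactly half above 10 with the replicate mean above 10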;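 note: wells of about 30 µL received 50 nL stock; many hits fall short of the cut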
Beta apoptosis: beta cell apoptosis inhibition. protection from apoptosis, % (test concentration not listed). actives 0.8% (n = 300,000). INS-1E cytokine-induced death, ATP luminescence, 48 h; percent of positive-control rescue, neutral wells zero. AID 435005;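 active = all replicates at 75% or more, or half of them and the mean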;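 note: 0% = cytokine-treated negative control wells and 100% = positive control rescue; higher means more ATP so stronger rescue from cytokine killing; wells of about 40 µL received 100 nL stock; the first replicate is given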
Ecoli rRNA inh OD600: second read-out of Ecoli rRNA inh, no call of its own (marks repeat the call); OD600 change, %; measured here: OD600 growth;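 optical density of the mix in the first replicate; 0 = DMSO median and -100 = no signal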
Ecoli rRNA inh RFP: also measured in Ecoli rRNA inh; calls as there; RFP signal change, %; measured here: RFP humanized mutant strains;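 first replicate; 0 = DMSO median and -100 = no signal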
Starred values were filed as active, the others as inactive; / = not tested or not shown; & = joins results of further samples. A portion of the library; rates above refer to the full screens.

SMILES	Beta2AR agonist	T cruzi repl	Ecoli rRNA inh	Ecoli rRNA inh OD600	Ecoli rRNA inh RFP	Calb FLC	ALR inh	LANA-H2A inh	Bfl-1 A1 inh	Beta apoptosis
COc1ccc(CN2CCNC(=O)C2CC(=O)NC2CCCCCCC2)cc1OC (stereo not drawn)	3.3	12.6	-3.5	-2.3	3.7	-37.2	-6.5	-6.8	1.4	-0.5
Cc1cc(OCCN2CCOCC2)ccc1Cl	-1.9	-6.0	-1.6	1.0	-3.0	-15.9	-0.1	3.6	-0.9	/
O=C(Nc1cccc(C(F)(F)F)c1)c1ccccc1NC(=O)C1CCCCC1	-1.1	5.7	-5.0	3.8	-2.5	13.0	-2.0	3.9	0.8	0.2
CCCNC(=O)NC(=O)CSc1nc(C)cs1	2.1	-18.6	14.7	12.6	2.2	5.8	11.4	-1.7	0.4	-9.6
O=C1CSC(c2cccnc2)N1c1ccc(Cl)cc1 (stereo not drawn)	-0.2	19.1	10.6	2.5	-0.6	-4.0	98.9*	2.3	0.5	-3.2
CCCn1c(SCC(=O)Nc2c(C)cccc2CC)nnc1C(C)C	-2.8	-11.8	/	/	/	-3.4	-1.8	-0.4	-0.7	3.0
CCN(CC)c1ccc(NS(=O)(=O)c2ccc(OC)cc2)cc1	-2.9	-7.4	16.0	12.7	3.5	-49.9	99.0*	-0.4	-0.3	11.9
COc1ccc2cc(/C=N/O)c(Cl)nc2c1	4.7	-1.1	-2.5	7.3	-1.0	-21.2	2.1	-0.8	-6.1	/
COc1ccccc1NS(=O)(=O)c1ccc(Cl)c(NC(=O)c2sc3cc(Cl)ccc3c2Cl)c1	-6.6	-15.0	3.1	-3.1	-2.2	2.9	-5.6	-4.2	-0.1	2.7
Cc1onc(-c2ccccc2Cl)c1C(=O)Nc1ccc(S(=O)(=O)N2CCCC2)cc1	5.8	7.1	-3.7	-11.8	-6.5	-1.6	47.0	1.2	0.4	5.1
O=C(Nc1nc2cc3c(cc2s1)OCCO3)c1cccc(N2C(=O)CCC2=O)c1	19.9	2.8	-5.5	2.2	-4.5	1.7	-3.7	0.7	-2.1	-2.9
Cc1ccsc1CN1CC(=O)N(c2c(C)cccc2C)C1=S	-9.6	15.4	-20.1	-20.2	1.0	-6.1	-17.5	-9.7	1.1	/
O=C(NC(=S)N(Cc1ccccc1)Cc1ccccc1)C1CCCCC1	4.9	-18.6	/	/	/	6.5	-2.8	1.8	-0.7	-0.2
O=C(Nc1ccc2c(c1)CCCN2C(=O)c1cccs1)c1ccccc1	10.2	11.6	-10.1	-4.0	3.6	17.5	3.6	-0.6	-2.7	7.7
O=C(Nc1ccc(S(=O)(=O)N2CCCCC2)cc1)c1ccccc1F	-0.2	6.0	-6.8	-12.6	2.6	-1.8	-1.0	-6.7	-0.4	3.7
C#CCOCCOCCOCCNc1nc(N2CCN(C(=O)[C@H](CCCCN)n3cc(CN)nn3)CC2)nc(N2CCN(C(=O)[C@H](CCC(=O)O)n3cc([C@@H](N)CCSC)nn3)CC2)n1	4.7	/	19.7	9.0	1.3	/	/	-6.5	1.4	-4.1
CN(CC(=O)Nc1ccc(OC(F)(F)F)cc1)S(=O)(=O)c1cnc[nH]1	-1.1	-0.6	-5.0	2.6	-2.0	-1.2	-1.0	-4.0	0.2	0.3
CC(=O)CN1Cc2ccccc2/C1=N\C(=O)Nc1ccccc1	4.5	-6.9	/	/	/	1.2	/	1.6	-1.2	-1.4
Cc1ccc2cccc(N=Cc3c(C)[nH]n(-c4ccccc4)c3=O)c2n1	12.8	-5.6	/	/	/	-4.2	1.0	/	-0.1	7.5
O=C(N/N=C/c1ccco1)c1cc(-c2ccccc2)nc2ccccc12	-4.1	-13.0	1.8	-4.1	-0.7	-2.8	0.7	3.1	-0.3	3.3
COc1ccc2[nH]c(C)c(CN3CCC(C)CC3)c(=O)c2c1	-1.8	-11.4	/	/	/	11.2	-3.5	-13.7	0.2	3.1
O=C(NCc1ccccn1)C1CCN(C(=O)c2cc3sccc3n2Cc2ccc(F)cc2)CC1	3.4	-1.5	-15.4	-16.6	-1.9	13.5	-2.7	2.8	0.0	-0.8
CCc1nnc(NC(=O)CSc2nc3c(c(=O)n2CC)SC(C)C3)s1 (stereo not drawn)	11.6	-10.0	7.9	16.9	-0.8	-0.8	4.3	5.1	-0.7	10.0
COc1ccc(Nc2nnc(-c3ccc(C(=O)NCCO)cc3)c3ccccc23)cc1	3.8	-6.4	-19.5	-14.8	-3.5	-3.0	-15.5	0.8	0.7	4.2
Cc1ccc(C(=O)OCc2nc3ccsc3c(=O)[nH]2)o1	7.0	13.1	5.6	9.6	-3.7	2.8	-5.3	-2.5	0.0	-2.6
CC1(c2ccccc2)ON(c2ccccc2C(F)(F)F)C1=O (stereo not drawn)	/	/	/	/	/	/	3.2	-1.3	-1.5	-7.4
CCOC(=O)CCCn1nc(C)n2c(cc3sccc32)c1=O	-6.5	13.2	/	/	/	8.9	-6.2	-2.5	0.8	-1.0
COc1ccc(OC)c(CNC(=O)CCn2c(=O)c3cccn3c3ccc(F)cc32)c1	5.4	11.5	-13.8	-1.3	-6.3	-4.8	18.6	-0.5	-0.1	-0.3
Cc1ccc(S(=O)(=O)NC(Cc2ccccc2)C(=O)O)cc1 (stereo not drawn)	-2.0	-12.2	3.4	1.3	-12.1	-7.5	-2.2	1.5	-0.5	-10.3
O=C(NCCc1ccccc1Cl)c1ccc2nc3ccccc3c(=O)n2c1	16.9	-4.3	11.7	6.6	5.5	0.1	/	7.0	0.3	/
CC(C)(C)OC(=O)N[C@H](/C=C/c1ccccc1)C(=O)OC(C)(C)C	3.3	/	12.0	6.2	0.4	/	-4.1	1.4	0.6	-6.3
COC(=O)NNC(=O)Cc1cccc2ccccc12	-4.5	-8.8	3.5	1.0	3.0	-5.4	-7.5	8.3	1.4	1.5
COc1ccccc1-n1c(Cc2cccs2)n[nH]c1=S	13.1	-10.9	2.1	3.4	-0.5	16.8	71.9	-0.4	1.4	-3.9
Cc1ccc(NC(=O)NCCCN2CCCC2=O)cc1Cl	/	2.5	4.8	0.4	4.4	2.6	-3.7	-1.7	1.0	-9.6
COc1ccc(CCNS(=O)(=O)c2ccc(F)cc2)cc1OC	1.1	11.6	2.2	-0.1	1.9	7.5	-5.4	-4.1	0.2	-2.6
CC1CC(C)CN(Cc2nc(N)nc(Nc3ccc4ccccc4c3)n2)C1 (stereo not drawn)	2.6	-18.1	/	/	/	-0.2	-31.8	2.1	2.2	17.2
COC(=O)c1cc(OC)c(OC)cc1NC(=S)N1CCN(C)CC1	1.3	0.1	/	/	/	-11.5	-4.9	4.1	0.0	-5.8
COc1ccc(NC(=O)C2CCCN(S(=O)(=O)c3cccnc3)C2)cc1 (stereo not drawn)	-0.3	0.4	/	/	/	-9.4	-10.0	4.3	1.3	5.8
O=C(CSc1cccc[n+]1[O-])Nc1cccc(Oc2ccccc2)c1	-7.5	9.5	-35.9	-48.8	-3.8	55.3	93.9*	-4.0	-0.3	-0.5
O=C(CNc1cccc(C(F)(F)F)c1)N/N=C/c1ccccc1C(=O)O	6.3	-25.9	-5.9	5.1	3.1	-17.7	-1.0	-0.5	0.5	-5.9
CCOC(=O)C1(Cc2ccc(OC)cc2)CCN(C(=O)c2cc(C)nn2C)CC1	-2.3	-7.8	1.2	0.3	-2.1	3.4	-2.4	-0.1	-0.1	1.0
CC(=O)Nc1cccc(NC(=O)C(=O)Nc2ccc3c(c2)N(C(=O)C2CC2)CCC3)c1	24.0	4.3	-3.5	1.6	-1.4	-10.2	/	/	/	/
Cc1ccc(C2(CC(=O)Nc3nccs3)CCOC(C(C)C)C2)cc1 (stereo not drawn)	-0.3	-7.2	/	/	/	-9.6	-3.9	7.0	-0.4	-1.0
O=C(O)Cn1c2ccccc2c2ccccc21	-6.8	-10.0	4.5	0.2	-3.5	-6.5	8.8	3.1	0.9	/
COC(=O)c1ccc(C2/C(=C(/O)c3ccc(OC)cc3)C(=O)C(=O)N2Cc2ccco2)cc1 (stereo not drawn)	1.5	-9.2	/	/	/	-4.2	5.2	3.8	0.6	-5.2
Nc1nc(SCc2ccc([N+](=O)[O-])cc2)nc2nc3c(cc12)CCCC3	-6.3	12.4	/	/	/	4.6	15.4	-0.2	0.9	-0.4
CC(NC(=S)NC1CCCCC1)C(c1ccccc1)N1CCOCC1 (stereo not drawn)	9.9	-8.7	-16.6	-26.2	-1.6	-24.9	4.7	2.3	0.6	6.7
COc1ccc(/C=C/C(=O)N2CCN(C)CC2)cc1OC	0.9	-9.0	2.9	5.9	0.2	-3.6	-10.0	3.4	0.5	0.6
COc1cc(C(=O)N=C2SC3CS(=O)(=O)CC3N2c2ccccc2)cc(OC)c1OC (stereo not drawn)	-5.8	-3.2	3.7	1.7	0.3	8.0	-0.8	-0.2	-0.7	-0.4
Cc1ccc(CSc2nc(N)cc(=O)[nH]2)cc1	-5.7	2.6	-3.0	1.3	-0.9	15.0	-9.9	1.6	-1.6	-0.7
CC1CCCN(C(=O)C2CCN(S(=O)(=O)c3cccc4nonc34)CC2)C1 (stereo not drawn)	-4.2	-3.9	0.8	2.2	-1.8	-10.5	-2.8	3.5	0.0	4.2
CCN(CC)C(=O)CSC1=C(C#N)C(c2ccco2)C(C(=O)OCCOC)=C(C)N1 (stereo not drawn)	-0.5&-0.2	17.1	-20.6	-19.2	3.8	4.1	-22.9	-1.2	-0.6	-7.0
CCOC(=O)NC1Cc2ccccc2C1Sc1ccccn1 (stereo not drawn)	-11.2	-10.5	-1.9	5.3	5.6	5.0	0.5	-2.7	-0.6	-3.7
Cc1ccc(Cl)cc1-c1ccc(/C=N/n2cnnc2)o1	-2.4	32.3	/	/	/	-12.4	-4.7	-5.6	0.0	/
COc1ccccc1CNCc1cccc(Oc2ccccc2)c1	-2.1	10.9	-26.5	-22.2	0.8	-20.8	/	10.8	-1.6	3.5
CC(C)Cc1nc(NCCN2CCOCC2)c(C#N)c2c1COC(C)(C)C2	-4.9	14.2	/	/	/	-2.9	-1.7	1.2	-0.4	-6.5
O=C(Nc1ccn(Cc2c(F)c(F)c(F)c(F)c2F)n1)c1cccc(Cn2cc([N+](=O)[O-])cn2)c1	-5.1	-12.8	/	/	/	-5.3	-6.3	4.1	1.4	-2.7
CCC(=O)c1ccc(OCC(=O)N2CCN(S(=O)(=O)c3ccc(Cl)s3)CC2)cc1	0.9	/	-3.4	10.9	2.0	/	/	-2.5	-0.8	0.2

Part of the list above, reformatted.
Every second line gives: Beta2AR agonist | T cruzi repl | Ecoli rRNA inh | Ecoli rRNA inh OD600 | Ecoli rRNA inh RFP | Calb FLC | ALR inh | LANA-H2A inh | Bfl-1 A1 inh | Beta apoptosis
- CCN(CC)C(=O)CSC1=C(C#N)C(c2ccco2)C(C(=O)OCCOC)=C(C)N1 (stereo not drawn)
  -0.5&-0.2 | 17.1 | -20.6 | -19.2 | 3.8 | 4.1 | -22.9 | -1.2 | -0.6 | -7.0
- CC(C)Cc1nc(NCCN2CCOCC2)c(C#N)c2c1COC(C)(C)C2
  -4.9 | 14.2 | / | / | / | -2.9 | -1.7 | 1.2 | -0.4 | -6.5
